Source: PubChem BioAssay (several laboratories)
Env fusion inh: blocks HIV Env-driven cell-cell fusion; HeLa-JRFL Env/CEM21 cell fusion, luciferase; inhibition, % at 12.3 µM; 360,000 compounds, 1.1% hits; AID 651610;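 active means mean replicate inhibition score of at least 50 and every replicate individually at or above 50; inconclusive means only one of the two criteria met; inactive means mean below 50 and not all replicates reaching 50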;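 further: 0% = plate neutral controls and 100% = maraviroc near 300 nM; one replicate is shown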
eIF4H inh: inhibitors of RNA binding by human eIF4H | Q15056 | eIF4H fluorescence polarization binding assay | inhibition, % at 35 µM | 290,000 compounds, 0.94% hits | AID 2012;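 active means 50% or more with normal probe brightness, or confirmed in later tests; inconclusive means above 50% with abnormal brightness, or retests that disagree; inactive means below 50% or failed in later tests; about a fifth of its hits are not listed in these tables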;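 further: calls also rest on retests at 20 µM and on dose response follow-up; 0% = protein and probe with vehicle and 100% = probe without protein; strong numbers were not always called active; many hits fall short of the cut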
MT1-MMP act inh: inhibitors of human MT1-MMP activation; 360,000 compounds, 0.061% hits; AID 651647; GFP/RFP ratio change, % at 20 µM; HT1080 RFP-PRO-GFP cells, GFP/RFP ratio fluorescence, overnight; percent of plate control window, DMSO zero;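 active means GFP/RFP ratio change of at least 30% with cell ATP level not reduced by more than half and red fluorescence within 50% of control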; further: strong numbers were not always called active
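Read-out: GFP/RFP fluorescence ratio; Test system: RFP-PRO-GFP reporter HT1080 cells; Compound dosing: single-point 20 µM compound, 1% DMSO; Times: overnight compound exposure at 37 °C.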
CSC inhib: cancer stem cell inhibition; inhibition, % at 7.5 µM; cancer stem cell-like cells viability, luminescence; AID 2717; 300,000 compounds, 1.1% hits;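 active means mean at 75% or more and at least half the replicates too; inconclusive means mean and replicates disagree; tested in HMLE shEcad cells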;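 further: 0% = median of negative and 100% = median of positive control wells; the first replicate is given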
Rce1 inh: blocks yeast Ras-converting enzyme. calls only. yeast membranes, quenched prenylated peptide cleavage fluorescence. Q03530. 290,000 compounds, 0.27% hits;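 active means fall in fluorescence gain of 50% or more versus controls, with final raw signal at or below 3038400; inconclusive means same 50% fall but final raw signal above 3038400; inactive means fall in fluorescence gain under 50%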;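 further: plate controls were neutral control wells for no effect and wells lacking membranes for full effect; tested at 10 µM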
Target sequence (Q03530 whole entry, looked up): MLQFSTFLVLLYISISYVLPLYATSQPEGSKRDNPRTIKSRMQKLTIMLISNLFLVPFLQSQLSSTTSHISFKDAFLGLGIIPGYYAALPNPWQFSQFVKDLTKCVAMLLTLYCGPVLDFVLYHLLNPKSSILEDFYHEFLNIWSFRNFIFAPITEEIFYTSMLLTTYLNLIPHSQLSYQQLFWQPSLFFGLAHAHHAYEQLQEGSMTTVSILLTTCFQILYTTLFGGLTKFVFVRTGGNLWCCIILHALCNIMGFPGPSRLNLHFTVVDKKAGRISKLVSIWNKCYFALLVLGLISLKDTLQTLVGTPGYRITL
PABP FP inh: blocks human PABP binding to poly(A) RNA; P11940; fluorescence polarization; inhibition, % at 35 µM; 290,000 compounds, 1% hits; AID 2014;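 active means 50% or more with normal probe brightness, or confirmed in later tests; inconclusive means above 50% with abnormal brightness, or retests that disagree; inactive means below 50% or failed in later tests; about a fifth of its hits are not listed in these tables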;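 further: calls also rest on retests at 20 µM and on dose response follow-up; controls were probe without protein and protein plus probe with vehicle; some compounds called inactive have numbers as strong as hits; many hits fall short of the cut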
Yeast UUG start: modulators of start codon recognition fidelity in yeast. S. cerevisiae UUG-firefly luciferase reporter, luminescence/redox ratio. activity score, % at 18.7 µM. 350,000 compounds, 0.13% hits. AID 602363;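 active means replicate mean at a twofold rise or more, about +100% in these data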;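 further: firefly luciferase made from a UUG start codon reports start codon fidelity; reporter light over untreated wells divided by growth signal over untreated wells; some hits fall short of that in this replicate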
eIF4H inh retest: further read-out of eIF4H inh, marked with its call; inhibition, %; compound at 20 µM; confirmation average;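 mean of two retest wells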
PABP FP inh retest: recorded beside PABP FP inh, whose call it bears; inhibition, %; compound at 20 µM; confirmation repeats;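 mean of two retest wells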
MT1-MMP act inh RFP: also measured in MT1-MMP act inh; calls as there; RFP signal change, %; measured here: RFP expression control read;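 0 = vehicle wells; hits needed this value within 50% of zero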
* hit, by the source's call; i = inactive; ? = inconclusive; . = not tested or not shown; & = joins results of further samples; [ ] = dose if it differs, or a comment.

SMILES	Env fusion inh	eIF4H inh	MT1-MMP act inh	MT1-MMP act inh RFP	CSC inhib	Rce1 inh	PABP FP inh	Yeast UUG start	others
O=C(O)CSCC(=O)Nc1cccc2ccccc12	.	-8	4	7	-6	i	-1	.
Cc1oc(C(=O)O)cc1COc1ccc2c(C)cc(=O)oc2c1	-21	-8	5	-2	-13	i	0	.
Cc1cc(C)cc(Oc2coc3c(CN(C)C)c(O)ccc3c2=O)c1	2	-6	-3	1	-5	i	-2	-3
COc1cccc2cc(C(C)N(CCCN3CCOCC3)C(=S)Nc3ccccc3C)oc12 (configuration not stated)	-10	-8	-1	-2	3	i	-17	-27
CC(C)Cc1nnc(NC(=O)CS(=O)(=O)Cc2ccccc2)s1	8	-8	1	3	-9	i	3	.
CC(C)(C)NC(=O)C(OC(=O)c1cccs1)c1ccc(F)cc1 (configuration not stated)	7	4	-4	-5	-3	i	10	.
O=C(COC(=O)[C@@H]1CC(O)CN1S(=O)(=O)c1ccc(Cl)c(Cl)c1)NC(=O)NCc1ccccc1 (some centres not stated)	-12	.	-1	2	-18	.	.	7
Cc1cc(C)c(NC(=O)COC(=O)CCn2c(C)csc2=O)c(C)c1	.	.	-3	3	4	i	.	.
O=C(Nc1ccc(S(=O)(=O)Nc2cnc3ccccc3n2)cc1)c1ccccc1Br	1	11	5	-8	-12	i	3	-2
O=C(N1CCCCC1)N1CCN(c2ccc(Cl)cc2)CC1	.	-9	-6	-5	-23	i	-2	15
Cc1ccc(N(CCC#N)C(=O)COC(=O)c2ccccn2)cc1	.	-7	1	5	-6	i	-1	-5
CCCNC(=O)Cn1cnc2sc(C(=O)NCCCN3CCOCC3)c(C)c2c1=O	2	-11	2	7	-2	i	10	-5
COc1ccc(C(=O)NCC(=O)OCc2ccc(F)cc2Cl)cc1OC	-2	3	2	5	0	i	9	-6
COc1ccc2c(c1)Cc1sc(NC(C)=O)nc1-2	-201	-1	-2	-1	8	i	6	11
Cc1cc(OCc2cc(C(=O)N(C)Cc3ccccn3)no2)cc(C)c1Cl	.	0	1	-1	9	i	8	-8
CCC(C)(C)n1nnnc1C(c1ccc2ncccc2c1)N1CCN2CCCC2C1 (configuration not stated)	.	8	-5	-3	-6	i	0	-14
COc1ccccc1NC(=O)CSc1nnc(C2CCCCC2)n1-c1ccccc1	19	11	-6	-10	82*	i	7	-1
CC(C)C(C)NC(=O)COc1ccc([N+](=O)[O-])cc1Cl (configuration not stated)	0	0	2	-11	5	i	6	1
S=C(NCCc1ccccn1)NC1CCCCC1	-8	8	2	4	-3	i	5	.
O=C(NCc1ccccc1)C1=C[C@@H](c2ccc(C(F)(F)F)cc2)C[C@@H](OCc2ccc(CO)cc2)O1	-24	-5	8	-7	49	i	-2	-16
O=C1/C(=C/c2ccc(N3CCCC3)cc2)NC(=S)N1C1CC1	.	126	-226	2	-16	i	120	-6	eIF4H inh retest=-2;PABP FP inh retest=5
COCCN(C(=O)CCC(=O)Nc1cc(C)on1)C(C(=O)NC1CCCC1)c1ccccc1F (configuration not stated)	-6	1	.	.	.	i	13	-11
CC(C)(CNC(=O)Cc1ccc(NS(=O)(=O)c2cccc(C(F)(F)F)c2)cc1)N1CCOCC1	.	.	0	-2	5	i	.	.
C[C@H](CO)N1C[C@H](C)[C@@H](CN(C)Cc2ccc(Cl)c(Cl)c2)Oc2c(NS(=O)(=O)c3cn(C)cn3)cccc2C1=O	7[16.7 µM]	.	-1	-3	.	.	.	-6&-11
Cc1cccc(N2N=C(C(=O)N3Cc4ccccc4CC3C(N)=O)CCC2=O)c1 (configuration not stated)	.	.	1	7	22	.	.	-6
Cc1cc(C)n(-c2cc(=O)n(C)c(=O)n2C)n1	.	-5	-1	3	-5	i	-3	-13
Cc1nc(C)c(C(=O)C2=C(O)C(=O)N(CCN3CCOCC3)C2c2cccnc2)s1 (configuration not stated)	.	7	2	5	-9	i	10	-19
O=[N+]([O-])c1ccc(N2CCNCC2)c(S(=O)(=O)N2CCOCC2)c1	-3	-6	-5	-4	.	i	-3	.
COc1cc(CN(C)CCc2ccccn2)cc(OC)c1OC	.	10	7	2	-14	i	16	-5
Brc1ccccc1-c1nnc(COc2cccc3cccnc23)o1	.	21	-6	-5	7	i	11	.
Cc1cccc2cc(C3CC(c4ccco4)=NN3C(=O)CCC(=O)O)c(Cl)nc12 (configuration not stated)	-4	56*	-3	0	-5	i	7	-11	eIF4H inh retest=68*;PABP FP inh retest=20
Cc1noc(C)c1C(=O)OCC(=O)NCc1ccccc1	-2	.	4	3	.	.	.	-21
CCCC(=O)N1CCC1(C)C(=O)NS(=O)(=O)c1cccs1 (configuration not stated)	-4	.	-3	6	.	.	.	-14
CC(=O)Nc1ccc(NS(=O)(=O)c2c(Cl)cccc2Cl)cc1	-9	-8	4	3	-2	i	9	.
CN(C)CCCN(C(=O)COc1ccccc1)c1nc2cc3c(cc2s1)OCO3	-1	51	0	1	-4	i	-2	-2	eIF4H inh retest=-8;PABP FP inh retest=12
COc1ccc(OC)c(-c2oc3ccccc3c(=O)c2O)c1	.	-7	5	3	.	i	-8	-19
COc1ccc(NC(=O)COC(=O)C(NC(=O)c2ccc(C)cc2)C(C)C)cn1 (configuration not stated)	.	.	-4	0	-8	.	.	4
CC[C@@H](C)[C@@H](C(=O)N1CCNCC1)n1cc(CCC(=O)O)nn1	2	7	1	4	-2	i	9	-7
COc1ccc(N/C(=C2\CCCC2=O)C2CCCCC2)cc1	18	.	-2	0	-9	i	.	-18
CN(C)CCCNc1c2c(nc3cc(-c4cccc(F)c4)nn13)CCC2	6	-9	-8	-1	4	i	1	-12
COc1cc(CNn2c(C)n[nH]c2=S)cc(Br)c1OCc1ccc(F)cc1	28	5	3	-2	10	i	2	.
N#Cc1cc2ccccc2n2nnnc12	12	-12	-2	1	-14	i	-3	0
CCOc1cc(N2CCOCC2)c(OCC)cc1NC(=O)CN1CCCC(C)C1 (configuration not stated)	4	?	-2	-1	5	i	77*	.	PABP FP inh retest=81*
COc1ccc(NC(=O)c2csc3c2CCCCC3)c(OC)c1	-9	-1	-4	3	3	i	-5	.
COc1ccc(CNc2oc(Cc3cccc4ccccc34)nc2C#N)cc1	.	1	-3	-7	-15	i	-5	-13
CCOc1cccc(CN2CCN(c3cccc(C(F)(F)F)c3)CC2)c1O	44	-4	-3	-2	-10	i	-2	2
COc1ccc(CCNC(=O)CN2CCN(S(=O)(=O)c3ccc(Cl)cc3)CC2)cc1OC	-62	5	-5	-1	-6	i	1	8
COC(=O)C1=C(C)N(C)C(=S)N(C)C1c1cccc(Br)c1 (configuration not stated)	-6	-5	-3	2	0	i	-2	-1
Cc1ccc(S(=O)(=O)N2CCN(C(=O)CSc3ncn[nH]3)CC2)cc1	.	.	-1	-3	-11	.	.	-15
COC(=O)c1cc(=O)n(-c2c(Cl)cc(C(F)(F)F)cc2Cl)[nH]1	4	4	-1	4	-44	i	6	-9
Cc1nnc(SCC(=O)c2c(N)n(C3CC3)c(=O)[nH]c2=O)n1-c1ccccc1	.	.	0	3	-7	.	.	-8
Cc1ccc(S(=O)(=O)/N=C2/NC(=O)/C(=C/c3ccccn3)S2)cc1	10	-8	-4	4	1	i	22	-16
COCc1cc(=O)[nH]c(Nc2nc(C)c3cc(OC)ccc3n2)n1	.	-3	.	.	1	i	-4	.
C=CC[C@@H](CC(=O)OC(C)(C)C)C(=O)OC[C@H]1CCCN1C(=O)[C@@H](CC=C)CC(=O)N(CCO)Cc1ccccc1	-56	.	5	-6	4	.	.	13
O=C(NCCN1CCCCC1)c1cc(COc2c(F)cccc2F)on1	-3	-8	-3	3	11	i	7	-3
CN(C)S(=O)(=O)c1ccc(N2CCCC2)c(C(=O)Nc2nc3c(ccc4ccccc43)s2)c1	52	-6	-1	3	22	i	-8	-6
COc1ccc(-n2nnnc2-c2ccc(S(C)(=O)=O)cc2Cl)cc1	-8	4	0	0	-15	i	-1	.
COc1cc2c(cc1NC(=O)CSc1ccccn1)oc1ccccc12	-47	-16	2	-7	8	i	-14	-1
CCN1CCN(S(=O)(=O)c2ccc(Cl)c(C(=O)N(C)Cc3ccc(Cl)cc3Cl)c2)CC1	-11	2	1	-9	-4	i	26	-2
CCC(=O)N1CCCC(C)(C(=O)Nc2ccc(OC(F)F)cc2)C1 (configuration not stated)	1	.	-1	2	.	.	.	-3
Following part.
SMILES	Env fusion inh	eIF4H inh	MT1-MMP act inh	MT1-MMP act inh RFP	CSC inhib	Rce1 inh	PABP FP inh	Yeast UUG start	others
Cc1ccc(C)c(N2CCN(C(=O)c3cc(S(=O)(=O)N4CCCC4)cn3C)CC2)c1	26	-9	5	2	6	i	-15	-2
COc1ccc(C2C(C#N)=C(N)Oc3cc(N)ccc32)cc1 (configuration not stated)	5	4	-2	-3	9	i	-3	13
Cc1cc(NC(=O)CCC(=O)N(Cc2ccco2)C2(C(=O)NC3CCCC3)CCCCC2C)no1 (configuration not stated)	19	-4	-3	0	.	i	10	10
CCC(C)(C)C(=O)Nc1nnc(CCc2ccccc2)s1	-33	-4	-2	-1	-6	i	-6	-11
O=C(COc1ccc([N+](=O)[O-])cc1Cl)N1CCc2ccccc21	.	.	0	3	-13	.	.	-5
NC(=O)c1cccc(-c2ccnc3c2CC(C(=O)NCc2ccc(F)c(F)c2)O3)c1 (configuration not stated)	12	.	0	-5	.	.	.	-17
COc1ccccc1CNC(=O)CCNS(=O)(=O)c1ccc2c(c1)oc(=O)n2C	-1	-3	-3	3	-3	i	1	1
COc1cc(NC(=O)Cc2ccc(S(=O)(=O)N3CCOCC3)s2)c(OC)cc1Cl	-7	.	2	-7	-12	i	.	-6
O=C(C1=NN(c2ccccc2)C2C(=O)N(c3ccccc3)C(=O)C12)c1ccccc1 (configuration not stated)	11	76	-81	6	3	i	-9	.	eIF4H inh retest=0;PABP FP inh retest=-1
CCOC(=O)C(=COC(=O)c1ccccc1)NC(=O)Cc1ccccc1	-7	.	-1	0	.	.	.	11
Cc1cc(N/N=C/c2ccccc2Cl)nc(NCc2ccccc2)n1	.	-13	-23	-17	94*	i	-23	.
C=CCNCCCCOc1ccc(Br)cc1C	5	16	4	4	.	i	9	.
O=C(O)/C=C/c1cnn(-c2ccccc2)c1	24	-4	2	5	.	i	-4	.
CCCOC(=O)CCCN1C(=O)/C(=C2\SC(=S)N(CCCC(=O)OCCC)C2=O)SC1=S	-18	-19	28	33	7	i	-2	0
COc1ccccc1/C=C(\C#N)C(=O)Nc1ccc(S(N)(=O)=O)cc1	24	-4	6	7	-8	i	6	-7
O=S(=O)(Cc1noc(-c2ccccc2Cl)n1)c1ccccn1	-21	39	0	0	-2	i	16	.
COc1ccc(C(=O)COC(=O)Cc2c[nH]c3ccccc23)c(OC)c1	2	.	0	-1	.	i	.	-5

4 entries out of the list, arranged by heavy-atom count, ascending:
SMILES	Env fusion inh	eIF4H inh	MT1-MMP act inh	MT1-MMP act inh RFP	CSC inhib	Rce1 inh	PABP FP inh	Yeast UUG start	others
O=C(O)/C=C/c1cnn(-c2ccccc2)c1	24	-4	2	5	.	i	-4	.
COc1ccccc1/C=C(\C#N)C(=O)Nc1ccc(S(N)(=O)=O)cc1	24	-4	6	7	-8	i	6	-7
COc1ccccc1CNC(=O)CCNS(=O)(=O)c1ccc2c(c1)oc(=O)n2C	-1	-3	-3	3	-3	i	1	1
NC(=O)c1cccc(-c2ccnc3c2CC(C(=O)NCc2ccc(F)c(F)c2)O3)c1 (configuration not stated)	12	.	0	-5	.	.	.	-17
